# Marburg entry inh: qHTS for inhibitors of binding or entry into cells for Marburg Virus; Marburg virus pseudotyped entry inhibition, cell reporter; control for the full effect not named in the record; about a third of the inactives were read at about 46 µM; Potency, µM (series often up to 37.8 µM), without a hit: at the highest dose activity change, negative = inhibition, usual class: inhibitors; 1.8% of 300,000 active; AID 540276, 2011; active = well fitted inhibition curve with a large enough effect; inconclusive = small, poorly fitted or top-dose-only effect, or effect the other way; inactive = flat fitted curve, though single readings scatter; tested in HEK293 cells; about a fifth of its hits are not listed in these tables; note: % is set by controls: 0 for no effect and ±100 for the full control effect; luciferase read-out
# NS1 inh: qHTS Assay for Inhibitors of Influenza NS1 Protein Function; S. cerevisiae slowed by influenza A NS1, growth recovery by OD600; Potency, µM (top dose mostly 46.1 µM), for inactives: at the highest dose activity, positive = more growth; 0.4% of 270,000 active; note: actives are rising curves; nearly all actives have a fitted effect of over 50% in size
#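 In this qHTS, NS1 from influenza A is expressed in budding yeast, where it slows growth. Cells are switched from glucose to 2% galactose medium (pH 6.0, -URA), treated with compound, and growth recovery is read at OD600.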
# Lassa entry inh: qHTS for Inhibitors of binding or entry into cells for Lassa Virus | 1.2% of 300,000 active | Potency, µM (top dose mostly 37.9 µM), without a hit: at the top dose activity change, negative = inhibition, most hits filed as inhibitors | Lassa virus pseudotype entry inhibition, cell reporter; control for the full effect not named in the record; active means well fitted inhibition curve with a large enough effect; inconclusive means small, poorly fitted or top-dose-only effect, or effect the other way; inactive means flat fitted curve, though single readings scatter; tested in HEK293 cells; note: % is set by controls: 0 for no effect and ±100 for the full control effect; nearly all actives have a fitted effect of over 50% in size; luciferase read-out
# Cruzain inh Det: qHTS Assay for Promiscuous and Specific Inhibitors of Cruzain (with detergent) | Potency, µM, for the others: max response, negative = inhibition, actives largely listed as inhibitors | Cruzipain (Trypanosoma cruzi), P25779 | 0.43% of 200,000 active | purified cruzain, Z-FR-AMC fluorescence, 0.01% Triton | AID 1478, 2009; active = well fitted curve in the direction sought with a large enough effect; inconclusive = small, poorly fitted or top-dose-only effect, or another doubt; inactive = no such curve, though single readings can be large; an effect the other way counts as inactive or inconclusive;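 note: plate controls were neutral wells for no effect and buffer without enzyme for full effect; nearly all actives have a fitted effect of over 40% in size; top concentration of the series not given in the record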
# Target sequence (P25779 123-467 limits assumed): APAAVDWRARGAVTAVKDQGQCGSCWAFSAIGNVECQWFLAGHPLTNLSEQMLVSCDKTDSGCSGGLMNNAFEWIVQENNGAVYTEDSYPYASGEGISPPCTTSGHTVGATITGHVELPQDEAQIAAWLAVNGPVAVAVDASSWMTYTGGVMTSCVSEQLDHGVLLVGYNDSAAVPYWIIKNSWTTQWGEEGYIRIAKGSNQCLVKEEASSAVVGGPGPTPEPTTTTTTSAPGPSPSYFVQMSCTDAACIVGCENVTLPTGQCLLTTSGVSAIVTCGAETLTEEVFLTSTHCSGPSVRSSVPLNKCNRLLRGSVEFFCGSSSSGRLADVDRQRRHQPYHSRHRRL
#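 Compounds were screened in titration against cruzain (1.5 nM) with 0.01% Triton X-100 to counter colloidal aggregation. Activity was the AMC fluorescence increase over 60 s after adding 2 uM Z-FR-AMC at pH 5.5.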
# 2A StopGo: High Throughput Screening for Foot and Mouth Disease Virus Antivirals; human cells with a luciferase reporter of 2A StopGo recoding; control for the full effect not named in the record; Potency, µM (highest dose often 57.9 µM), for inactives: top-dose signal change, negative = less light; 1.2% of 410,000 active; active = well fitted falling curve with a large enough effect; inconclusive = small, poorly fitted or top-dose-only effect; inactive = no such curve, though single readings can be large or run the other way; tested in HEK293T cells; note: % is set by controls: 0 for no effect and ±100 for the full control effect; nearly all actives have a fitted effect of over 45% in size; luciferase light after 4 h
# SARS PLpro yeast: qHTS of Yeast-based Assay for SARS-CoV PLP. S. cerevisiae expressing SARS-CoV PLpro, growth rescue; control for the full effect not named in the record. Potency, µM (highest dose often 32.9 µM), for inactives: top-dose activity, positive = growth rescue. 0.19% of 330,000 active. AID 485353, 2010; note: 0% is about no effect; nearly all actives have a fitted effect of over 55% in size; growth read by luminescence after 48 h
# RE007 growth inh: qHTS Assay for Inhibitors of the HIV-1 protein Vpr. S. pombe RE007 Vpr strain, BacTiter-Glo ATP luminescence, 24 h; control for the full effect not named in the record. 0.21% of 360,000 active. Potency, µM (titrated, usually from 92.2 µM), for the others: at the top dose activity change, negative = less growth; active = well fitted falling curve with a large enough effect; inconclusive = small, poorly fitted or top-dose-only effect; inactive = no such curve, though single readings can be large or run the other way;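 note: % is set by controls: 0 for no effect and ±100 for the full control effect; nearly all actives have a fitted effect of over 50% in size; the assay follows cell death caused by Vpr and the record does not say whether a fall means rescue or toxicity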
#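 Fission yeast RE007 carrying one integrated HIV-1 vpr copy, seeded at OD 0.01 in PMG+AL medium with 23 nL pinned compound. Grown 24 h at 30 degrees; viability read by BacTiter-Glo luminescence after 5 min.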
# Cruzain noTriton: qHTS Assay for Promiscuous and Specific Inhibitors of Cruzain (without detergent); 2.3% of 200,000 active; Potency, µM, for the others: max response, negative = inhibition, actives largely listed as inhibitors; Cruzipain (Trypanosoma cruzi), P25779; purified cruzain, Z-FR-AMC fluorescence, no detergent; active = well fitted curve in the direction sought with a large enough effect; inconclusive = small, poorly fitted or top-dose-only effect, or another doubt; inactive = no such curve, though single readings can be large; an effect the other way counts as inactive or inconclusive;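 note: plate controls were enzyme without inhibitor for no effect and buffer without enzyme for full effect; nearly all actives have a fitted effect of over 40% in size; top concentration of the series not given in the record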
#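 Detergent-free condition (0.00005% Triton X-100) in acetate buffer pH 5.5 with DTT. 1.5 nM enzyme and compound were pre-mixed 15 min, then 2 uM Z-FR-AMC substrate added; reaction progress from fluorescence change between first and third reads (60 s).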
# Starred values were filed as active, the others as inactive; ? = inconclusive; / = not tested or not shown; & = joins results of further samples; [ ] = dose if it differs, or a comment. Unless noted, calls come from the whole dose curve; as a rule, active means well fitted rising curve with a large enough effect; inconclusive means small, poorly fitted or top-dose-only effect; inactive means no such curve, though single readings can be large or run the other way. Potency is the fitted concentration of half-maximal effect. Outcome played no part in choosing rows; any-hit rate near 4.7%.
mol	Marburg entry inh	NS1 inh	Lassa entry inh	Cruzain inh Det	2A StopGo	SARS PLpro yeast	RE007 growth inh	Cruzain noTriton
CCOc1ccc(N2C(=O)Nc3ccc(Br)cc3C2(O)C(=O)NCCCN(C)C)cc1 (stereo not given)	?	5%	17%[46.1 µM]	/	-7%	0%	-4%	/
COCCNc1ncnc2c1c(-c1ccccc1)cn2-c1ccc(C)c(Cl)c1	/	/	?	0.6%	-15%	/	/	7%
CCCCN1C(=O)c2ccc(C(=O)Nc3ccc(S(=O)(=O)N(C)C)cc3)cc2C1=O	-16%	9%	0%	-5.9%	20µM*	-13%	0%	10%
Cc1cccc(N=C2N=C(N)c3ccccc32)c1	?	-21%	?	-0.3%	18%	0%	-21%	-4%
CC(=O)Nc1ccc(C(=O)COC(=O)C2CC3CCCC(C2)C3=O)cc1 (stereo not given)	17%	/	1%	/	-12%	4%	1%	/
Cc1cc2oc(C(=O)N(Cc3ccccc3)C3CCS(=O)(=O)C3)cc(=O)c2cc1C (stereo not given)	25%[46.1 µM]	/	-10%[46.1 µM]	-2.3%	-20%	/	/	-7%
CCOc1ccc2nc(Nc3nc4ccc(NC(C)=O)cc4s3)sc2c1	-48%	?	-24%	-10.0%	-13%	-1%	-11%	10%
CCOC(=O)C1(CC2CCCCO2)CCN(C(=O)Nc2ccccc2CC)CC1 (stereo not given)	/	4%	/	/	-18%	-1%	2%	/
C=CCNc1nc(-c2sc(NC(=O)CC)nc2C)cs1	?	-36%	?	-9.8%	41%[activator]	3%	12%	?
CCn1cnc2cc(NCc3ccccc3Cl)ccc21	21%	-49%	5%	/	26%	-11%	-1%	/
Cc1ccc2[nH]c3c(=O)n(CC(=O)N4CCCC(C)C4)ncc3c2c1 (stereo not given)	/	/	-1%[46.1 µM]	-2.1%	-21%	/	/	-1%
CCC1CCc2nc3sc(C(=O)Nc4ccc(F)c(F)c4)c(N)c3cc2C1 (stereo not given)	2%[46.1 µM]	/	?	-2.6%	5%	/	/	7%
CC(=O)Nc1cccc(NC(=O)Nc2ccc(C)c(Cl)c2)c1	?	5%	?	/	23%	-1%	5%	/
COc1ccc2c(c1)c1c(c(=O)n(-c3cccc(C)c3)c(=O)n1Cc1cccc(Cl)c1)n2C	/	/	1%[46.1 µM]	-3.2%	-4%	/	/	-7%
Cc1ccccc1-c1nc(S(=O)(=O)c2ccc(Cl)cc2)c(NCCN2CCOCC2)o1	?	-8%	?	-2.1%	2%	-7%	-21%	?
COc1cc(C)cc2oc(=O)c(CC(=O)NCCc3ccc(Cl)cc3)c(C)c12	4%[46.1 µM]	/	7%[46.1 µM]	4.1%	-10%	/	/	-10%
COc1cc(OC)c(C2CC(=O)N3CN(c4ccccc4C)CSC3=C2C#N)cc1OC (stereo not given)	0%	4µM*	/	-6.5%	/	4%	/	-22%
O=C1CCCC2=C1C(c1cccs1)Nc1ccc3ncccc3c12 (stereo not given)	-19%	-6%	-5%	-6.8%	-14%	0%	-6%	-12%
Cc1cccc(-n2nc3c(c2NC(=O)c2ccc4c(c2)OCO4)CS(=O)(=O)C3)c1C	/	-3%	/	/	1%	-4%	1%	/
CCn1c(SC(C)C(=O)N2CCOCC2)nc2sc(C)c(C)c2c1=O (stereo not given)	?	/	11%	/	-27%	/	9%	/
O=C(NCc1ccc(F)cc1)C1CCN(c2cnccn2)CC1	2%[46.1 µM]	2%	5%	/	-20%	1%	1%	/
Cc1ccc(N2C(=O)CSC23C(=O)N(CC(=O)NCCc2ccccc2)c2ccccc23)cc1 (stereo not given)	/	/	-12%[46.1 µM]	-1.7%	-7%	/	/	6%
CCOC(=O)C1CCN(S(=O)(=O)c2cc(Br)cc3c2N(C(=O)C2CC2)CC3)CC1	-8%&-8%	-72%	10%	0.4%	0%	-19%	1%	?
O=C(CCCc1ccccc1)NCc1cn2ccsc2n1	/	-6%	/	-8.8%	10%	0%	-3%	-7%
CCc1ccc(C2CC(c3ccc(F)cc3)Nc3nc(N)nn32)cc1 (stereo not given)	/	?	/	-5.1%	0%	11%	-10%	20%

mol	Marburg entry inh	NS1 inh	Lassa entry inh	Cruzain inh Det	2A StopGo	SARS PLpro yeast	RE007 growth inh	Cruzain noTriton
CC(C)(C)OC(=O)N1CCC(c2cc(=O)n3[nH]cc(C(=O)NC4CCCC4)c3n2)CC1	/	-75%	/	-7.6%	-4%	0%	-6%	?
Cn1c(CC(=O)Nc2ccccc2Cl)nnc1SCC(=O)NC1=NCCS1	1%[46.1 µM]	1%	0%	/	-2%	-11%	-12%	/
COc1cc(OC)cc(-c2nc3ccccc3s2)c1	?	-42%	?	3.7%	9%	-9%	-20%	-6%
O=C(Cn1cnc2cc([N+](=O)[O-])ccc2c1=O)Nc1cccc2ccccc12	10%[46.1 µM]	?	-23%	/	-16%	1%	55%	/
Cc1ccc(NC2=NC(C(=O)Nc3ccc(C)c(C)c3)CC(=O)N2)cc1 (stereo not given)	-14%	1%	22%	-0.2%	-11%	2%	-12%	-6%
CC(C)C(=O)NCC(c1ccc2c(c1)OCO2)N1CCOCC1 (stereo not given)	/	-4%	/	/	-15%	-9%	-2%	/
CC1(C)CC(=O)C(C=NCCN2CCN(C(=S)NC3CCCCC3)CC2)=C(O)C1	?	-5%	-4%	2.5%	-16%	11%	18%	6%
Nc1nc(N2CCN(C/C=C/c3ccccc3)CC2)nc2ccccc12	4%	-10%	3%	-4.8%	?	-1%	1%	2%
Cc1ccccc1NC(=O)CSc1cn(CC(=O)N2CCCC2)c2ccccc12	/	/	?	-0.8%	5%	/	/	-3%
CCOC(=O)N1CCN(C(=O)CSc2ccc(-c3ccncc3)nn2)CC1	16%[46.1 µM]	/	0%	/	-21%	-3%	-17%	/
Cc1c([N+](=O)[O-])c(N)nn1C	-9%[46.1 µM]	6%	-9%	/	-25%	0%	-12%	/
CC(C)c1ccc(S(=O)(=O)c2nnn3c2nc(N2CCN(C)CC2)c2sccc23)cc1	/	/	1%[46.1 µM]	-0.1%	3%	/	/	3%
Cc1ccc(NCc2nnc(SCC(=O)Nc3ncc(C)s3)n2Cc2ccco2)c(C)c1	-1%&-1%	10%	?	3.4%	15%	-1%	-6%	-7%
Cc1ccc(C)c(S(=O)(=O)n2cnc3ccccc32)c1	10%	1%	18%	0.8%	27%	5%	16%	-5%
CCOC(=O)c1cnc(-c2ccccc2)nc1Oc1ccc(Cl)cc1	/	13%	-8%	2.9%	-18%	4%	12%	4%
CC(C)CNC(=O)C1CCN(c2ccc(S(=O)(=O)N3CCOCC3)cc2Cl)CC1	2%&-5%	-7%	-1%	-5.5%	-12%	2%	-4%	23%
CSc1ccccc1C(=O)NCc1ccc(C)cc1	-1%[46.1 µM]	-3%	?	/	0%	-1%	5%	/
Cc1ccc2nc(C3CCN(S(=O)(=O)c4ccc5ccccc5c4)CC3)[nH]c2c1	?	-89%	?	0.2%	/	/	3%	?
COc1ccccc1CN1CCCCC1C(=O)O (stereo not given)	7%[46.1 µM]	/	23%	/	-1%	-2%	-7%	/
Nc1nc(SCc2nc(-c3ccccc3)no2)[nH]c(=O)c1-c1ccccc1	?	-3%	20%	-7.7%	?	10%	-10%	-14%
Cn1c(=O)[nH]c(=O)c2c1[nH]c(=S)n2Cc1ccccc1	/	7%	/	/	-15%	1%	-2%	/
O=C(CSc1nc2ccccc2nc1N1CCCCC1)Nc1ccc(F)cc1	/	8%	/	/	12%	-8%	13%	/
CCc1cnc2c(c1SCc1cc(OC)cc(OC)c1)c(=O)n(C)c(=O)n2C	/	/	-13%[46.1 µM]	-0.5%	-22%	/	/	-6%
COc1cc(/C=N/Nc2nc(N3CCCC3)nc(N3CCCC3)n2)ccc1OCc1ccccc1F	-24%[46.1 µM]	4%	9%[46.1 µM]	/	-22%	5%	-14%	/
COc1ccc(OC)c(NC(=O)CSc2nn3c(=O)c(C)nnc3s2)c1	/	7%	/	/	-11%	0%	18%	/

mol	Marburg entry inh	NS1 inh	Lassa entry inh	Cruzain inh Det	2A StopGo	SARS PLpro yeast	RE007 growth inh	Cruzain noTriton
N#CCCn1cc(C(=O)Nc2ccccc2Br)c(-c2cc3ccccc3o2)n1	?	?	-1%	-10%	-34%	?	12%	?
COc1ccc(C2=Nn3c(nnc3-c3cccnc3)SC2)cc1OC	1%	0%	-17%	-4.7%	-12%	-4%	-11%	-20%
CN(C)CC#CCC(O)(c1ccccc1)c1ccccc1	?	0%	-13%	/	-15%	1%	-8%	/
COc1cccc(O)c1CN1CCCC(C(=O)c2ccccc2SC)C1 (stereo not given)	?	-2%	?	/	-25%	0%	-2%	/
CCOc1cc(C(=O)N2CCN=C2SC)cc(OCC)c1OCC	-3%	8%	1%	2.8%	6%	2%	45%	11%
Cn1cccc1-c1nc2ccccc2[nH]1	?	-3%	23%	/	53%[activator]	-2%	-3%	/
CC/C(=N\NC(=O)c1ccccc1O)c1c(O)n(Cc2ccccc2)c(=O)[nH]c1=O	/	-5%	/	/	-16%	1%	-1%	/
CCn1cc(CNC(=S)Nc2cccc(Cl)c2C)cn1	16%[14.2 µM]	2%	-2%	/	12%	0%	-15%	/
COc1ccc(-c2c/c(=N\c3nc(-c4ccccc4)c(C)s3)c3ccccc3o2)cc1O	?	-8%	?	-3.6%	?	?	4%	10µM*
CCOc1ccc(C2CC(=O)Nc3c2c(=O)nc(SCc2ccccc2C)n3C)cc1OC (stereo not given)	27%[46.1 µM]	/	-2%[46.1 µM]	-1.8%	1%	/	/	19%
COc1cc(/C=N/NC(=O)c2ccc([N+](=O)[O-])cc2Cl)cc(Br)c1O	10%	?	0%	1.0%	0%	7%	9%	-2%
Oc1ccc(N=C/C=C/c2ccc(Br)cc2)cc1-c1nc2ccccc2s1	3%	17%	?	-14%	/	-4%	/	32µM*
